Screening results from PubChem.
Rango release inh: qHTS Assay for Inhibitors of RanGTP induced Rango (Ran-regulated importin-beta cargo) - Importin beta complex dissociation | Snurportin-1 (Homo sapiens) + GTP-binding nuclear protein Ran (Homo sapiens) + Importin … | Biochemical FRET Rango-importin beta, RanGTP-induced dissociation | Potency, µM (top dose mostly 46.1 µM), for inactives: top-dose activity change, negative = inhibition | hit rate 0.071% among 340,000; active means falling FRET ratio curve, often poorly fitted, with flat reads before Ran was added; inconclusive means other falling curves, or compound fluorescence or quenching; inactive means flat or rising ratio curve;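 further: potency means the concentration at half of the fitted maximal effect; % of control where 0% means no effect; nearly all actives have a fitted effect of over 45% in size; -100% = wells without RanGTP and RCC1; the record marks most hits as doubtful in a second field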
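Recombinant Rango FRET biosensor (EYFP–snurportin 1 IBB–cerulean CFP10) at 0.1 uM premixed with 0.25 uM importin beta in PBS, 1 mM DTT, 0.02% Tween-20, 0.1% BSA. Compound added 5 min; RanGTP-RCC1 (0.6 uM Ran, 2 mM GTP, 0.2 uM RCC1) then triggers release, read at 45 min.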
Rango complex inh: qHTS Assay for Inhibitors of Rango (Ran-regulated importin-beta cargo) - Importin beta complex formation; Importin subunit beta-1 (Homo sapiens), Q14974; Rango CFP/YFP FRET sensor + importin beta, 45 min; hit rate 0.031% among 340,000; Potency, µM (titrated, usually from 92.2 µM), without a hit: at the highest dose inhibition of complex formation; active = rising FRET ratio curve, often small or poorly fitted; inconclusive = mostly compound fluorescence or quenching in the first reads; inactive = flat curves in all reads;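 further: potency means the concentration at half of the fitted maximal effect; 0% = DMSO wells and 100% = buffer wells lacking importin beta; nearly all actives have a fitted effect of over 15% in size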
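FRET biosensor (snurportin 1 IBB flanked by EYFP and cerulean), 50 nM, with compound 5 min, then 0.125 microM importin beta in PBS, 1 mM DTT, 0.02% Tween-20, 0.1% BSA. CFP/YFP ratio read after 45 min at room temperature; pre-read flags interference.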
miR-21 FLuc: qHTS Assay for Modulators of miRNAs and/orActivators of miR-21; HeLa miR-21 FLuc reporter, luciferase, 48 h; Potency, µM (doses to about 38.3 µM), for inactives: at the highest dose reporter change, positive = more light; 340,000 tested, under 10 active; AID 2288, 2010; active = well fitted rising curve with a large enough effect; inconclusive = small, poorly fitted or top-dose-only effect; inactive = no such curve, though single readings can be large or run the other way;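 further: % of control where 0% means no effect; miR-21 action dims this reporter so a rising signal means less miR-21 action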
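HeLa cells stably expressing CMV-driven firefly luciferase with a downstream miR-21 binding sequence, endogenously expressing miR-21, were treated with titrations (up to about 40uM final) for 48 hours at 37 degree Celsius. Luciferase luminescence was read after lysis.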
GLA inh pH 4.5: qHTS Assay for Inhibitors of Human alpha-Galactosidase at pH 4.5 | Alpha-galactosidase A (Homo sapiens), P06280 | purified enzyme, 4-MU-alpha-Gal fluorescence, pH 4.5 | activity change, negative = inhibition, % at 105 µM | 230,000 tested, under 10 active | AID 1467, 2008; inconclusive = small, poorly fitted or top-dose-only inhibition, or a rising curve; inactive = flat fitted curve, though single readings scatter; no compound was filed as active;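 further: 0% = full activity with enzyme and -100% = basal without enzyme; dose as in the result columns while the protocol names 77 µM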
Starred values were filed as active, the others as inactive; ? = inconclusive; . = no result given. These rows are one share of the data (hit frequency here may not be typical).

Order of results: GLA inh pH 4.5, Rango release inh, Rango complex inh, miR-21 FLuc
CCOc1ccc(C(=S)N2CCN(C)CC2)cc1
  -5, 6%, -1.1%, -4%
CSc1nc(C)cc(Oc2ccc(=O)n(C)n2)n1
  -1, 20%, 2.9%, -6%
Cc1cc(C(=O)Nc2ccc(C#N)cc2)on1
  ., -2%, -1.2%, -17%
Cn1c2ccccc2c2c(C(=O)O)cn(C3CCCC3)c(=O)c21
  12, 10%, 1.3%, -1%
COc1ccc(C(=O)N2CCN(c3ccccc3OC)CC2)cc1
  2, 2%, 0.3%, -2%
COc1cccc(-c2ccc(SCC(=O)NC3CCCC3)nn2)c1
  ., -7%, -0.1%, -8%
CCOc1ccc(NC(=O)CN(C)C(=O)c2c(C)nn(-c3ccccc3)c2Cl)cc1OCC
  ., -19%, 3.7%, .
Cc1c(C(Nc2ccccn2)c2ccccc2)c(=O)n(-c2ccccc2)n1C (centres undefined)
  -1, -5%, -0.1%, -4%
Cc1cc(C(=O)COC(=O)Cc2ccc(Cl)cc2)c(C)n1C
  ., 0%, -2.6%, .
CC1CCCC(C)N1C(=O)COC(=O)/C=C/c1ccco1 (centres undefined)
  ., -23%, -0.9%, .
O=C(CN1CCN(S(=O)(=O)N2CCCCCC2)CC1)Nc1ccc(Br)cc1
  ., -13%, 3.6%, 1%
O=C(Nc1ccc(N2CCCC2)c(Cl)c1)c1cccc(-c2cc3ccccc3oc2=O)c1
  4, 7%, 1.7%, -19%
O=C(CN1C(=O)COc2ccc(Cl)cc21)Nc1ccc(N2CCOCC2)cc1
  ., 24%, -0.5%, -2%
CN(CC(=O)Nc1c(Cl)cccc1Cl)C(=O)c1ccc2nc[nH]c2c1
  ., -2%, -2.7%, .
CCOC(=O)c1nc2cc3n(c(CC(C)C)c-2c1C)CC(C)=C3C
  -5, ?, ?, -5%
Cc1ccc(OCc2nnc(NC(=O)Cc3cccs3)s2)cc1
  6, ., ., -3%
O=C(Nc1cccc(S(=O)(=O)N2CCOCC2)c1)C1CCCCN1S(=O)(=O)c1ccccc1 (centres undefined)
  ., -8%, 0.3%, .
Cc1cc2c(cc1C)N(Cc1ccc(Cl)cc1)C1=NCCCN12
  ., 8%, -1.2%, .
O=c1[nH]c(SCc2nc3c(cnn3-c3ccccc3)c(=O)[nH]2)nc2ccccc12
  4, -8%, ?, -11%
O=C1c2ccccc2-c2c1cccc2C(=O)N1CCCCC1
  5, -1%, 3.8%, -23%
O=C(Nc1cccc2c1CCCC2)c1ccc(F)cc1
  ., 11%, -0.1%, .
CC(=O)N1CC(C)Sc2ccc(S(=O)(=O)NCCc3cccc(C)c3)cc21 (centres undefined)
  ., -12%, -7.5%, 6%
COc1cc(S(=O)(=O)n2nnc3ccccc32)c(OC)cc1Cl
  -5, -10%, 3.3%, -1%
CC(C)Oc1ccc(CNC(=O)c2ccc3nc(N4CCOCC4)sc3c2)cc1
  ., -9%, ?, -3%

Sorted by formula weight (ascending): some entries from above
Order of results: GLA inh pH 4.5, Rango release inh, Rango complex inh, miR-21 FLuc
CSc1nc(C)cc(Oc2ccc(=O)n(C)n2)n1
  -1, 20%, 2.9%, -6%
O=C(Nc1cccc2c1CCCC2)c1ccc(F)cc1
  ., 11%, -0.1%, .
O=C1c2ccccc2-c2c1cccc2C(=O)N1CCCCC1
  5, -1%, 3.8%, -23%
Cn1c2ccccc2c2c(C(=O)O)cn(C3CCCC3)c(=O)c21
  12, 10%, 1.3%, -1%
Cc1cc(C(=O)COC(=O)Cc2ccc(Cl)cc2)c(C)n1C
  ., 0%, -2.6%, .
COc1ccc(C(=O)N2CCN(c3ccccc3OC)CC2)cc1
  2, 2%, 0.3%, -2%
COc1cccc(-c2ccc(SCC(=O)NC3CCCC3)nn2)c1
  ., -7%, -0.1%, -8%
COc1cc(S(=O)(=O)n2nnc3ccccc32)c(OC)cc1Cl
  -5, -10%, 3.3%, -1%
Cc1c(C(Nc2ccccn2)c2ccccc2)c(=O)n(-c2ccccc2)n1C (centres undefined)
  -1, -5%, -0.1%, -4%
CN(CC(=O)Nc1c(Cl)cccc1Cl)C(=O)c1ccc2nc[nH]c2c1
  ., -2%, -2.7%, .
O=C(CN1C(=O)COc2ccc(Cl)cc21)Nc1ccc(N2CCOCC2)cc1
  ., 24%, -0.5%, -2%
CC(=O)N1CC(C)Sc2ccc(S(=O)(=O)NCCc3cccc(C)c3)cc21 (centres undefined)
  ., -12%, -7.5%, 6%
O=C(Nc1ccc(N2CCCC2)c(Cl)c1)c1cccc(-c2cc3ccccc3oc2=O)c1
  4, 7%, 1.7%, -19%
O=C(CN1CCN(S(=O)(=O)N2CCCCCC2)CC1)Nc1ccc(Br)cc1
  ., -13%, 3.6%, 1%
CCOc1ccc(NC(=O)CN(C)C(=O)c2c(C)nn(-c3ccccc3)c2Cl)cc1OCC
  ., -19%, 3.7%, .
O=C(Nc1cccc(S(=O)(=O)N2CCOCC2)c1)C1CCCCN1S(=O)(=O)c1ccccc1 (centres undefined)
  ., -8%, 0.3%, .
